ALR H2O2 inh: inhibitors of human sulfhydryl oxidase ALR; purified ALR, DTT oxidation, H2O2 HRP-luminol luminescence; inhibition, % (concentration not given with the values); 290,000 tested, 3.8% active; AID 485317;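 active = mean and each replicate at 75% or more; inconclusive = only one of the two met; inactive = neither met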;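 note: stock transfer was 7.5 nL into about 7.5 µL; 0% = neutral wells and 100% = wells with inactivated enzyme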
Target sequence (P55789 whole entry, looked up): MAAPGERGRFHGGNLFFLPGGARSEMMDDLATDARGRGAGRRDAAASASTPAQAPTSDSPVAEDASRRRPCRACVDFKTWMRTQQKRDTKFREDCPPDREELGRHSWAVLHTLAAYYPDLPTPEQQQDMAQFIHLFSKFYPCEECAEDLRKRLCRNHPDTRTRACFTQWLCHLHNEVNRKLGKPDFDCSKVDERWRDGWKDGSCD
Beta cell apopt: beta cell apoptosis inhibition; INS-1E cytokine-induced death, ATP luminescence, 48 h; percent of positive-control rescue, neutral wells zero; protection from apoptosis, % (concentration not given with the values); 300,000 tested, 0.8% active; AID 435005;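 active = all replicates at 75% or more, or half of them and the mean; inconclusive = half reach 75% but not the mean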;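 note: 0% = cytokine-treated negative control wells and 100% = positive control rescue; higher means more ATP so stronger rescue from cytokine killing; wells of about 40 µL received 100 nL stock; the first replicate is given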
T cruzi repl: T. cruzi replication inhibition. T. cruzi beta-gal in NIH3T3, luminescence, 90 h. inhibition, % (no concentration beside the values). 300,000 tested, 1.4% active. AID 1885;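 active = mean inhibition across valid replicates above about 55%, limit read from the data; inconclusive = mean below that limit but half or more replicates reach it; inactive = mean below it, under half of replicates reach it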;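 note: signal also drops with host cell toxicity which is not excluded here; 0% = plate median of DMSO wells and 100% = zero luminescence signal; higher percent means less beta-gal luminescence so fewer parasites; stock transfer was 50 nL into about 50 µL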
MLL AF4-AF9 inh: blocks AF4 peptide binding to human AF9; 350,000 tested, 0.47% active; AID 651704; P42568; AlphaScreen, biotin-AF4 peptide binding to FLAG-AF9; inhibition, % at 10 µM;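 active = every replicate reaching a set inhibition limit, whatever the replicate mean, cut at about 25% in these data; inconclusive = mean inhibition reaches that limit but some replicates miss it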;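 note: 0% = plate neutral control median and 100% = total signal loss; the record names both 10 and 1 µM as test concentration; the first replicate is given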
Target sequence (P42568 whole entry, looked up): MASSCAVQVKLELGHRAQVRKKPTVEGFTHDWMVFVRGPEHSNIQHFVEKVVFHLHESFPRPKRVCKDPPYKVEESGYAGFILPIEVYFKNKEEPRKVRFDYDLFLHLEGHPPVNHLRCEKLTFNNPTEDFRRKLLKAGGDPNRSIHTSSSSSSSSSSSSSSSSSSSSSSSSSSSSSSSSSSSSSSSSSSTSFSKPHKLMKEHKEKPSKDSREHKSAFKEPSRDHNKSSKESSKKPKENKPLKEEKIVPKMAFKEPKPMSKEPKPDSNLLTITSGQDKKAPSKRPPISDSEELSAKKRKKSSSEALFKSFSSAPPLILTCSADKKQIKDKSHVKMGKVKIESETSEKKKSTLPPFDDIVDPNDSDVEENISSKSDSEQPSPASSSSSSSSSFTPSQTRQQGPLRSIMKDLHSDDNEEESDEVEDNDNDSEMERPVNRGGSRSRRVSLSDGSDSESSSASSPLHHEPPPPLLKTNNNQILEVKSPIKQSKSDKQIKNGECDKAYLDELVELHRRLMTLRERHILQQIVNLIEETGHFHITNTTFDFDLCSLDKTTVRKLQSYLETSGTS
rRNA inh HTS: inhibitors of bacterial rRNA selective over humanized ribosomes; GFP signal change (wild-type ribosome), % (test concentration not listed); 350,000 tested, 1.6% active; AID 720706; E. coli WT GFP vs humanized-ribosome RFP mutants, fluorescence, 24 h; stronger effect = lower value; DMSO median 0, no signal -100;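 active = significant combined selectivity score with lowered wild-type GFP, culture density cut under 30%, mutant RFP and density less affected; inactive = any of these conditions unmet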; note: one replicate is shown; some compounds called inactive have numbers as strong as hits
Calb FLC: affects C. albicans growth with fluconazole | growth inhibition, % (concentration not given with the values) | AID 1979 | 300,000 tested, 0.57% active | C. albicans CaCi-2 (fluconazole-resistant clinical isolate) + fluconazole, Alamar Blue growth, 48 h;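 active = most replicates above 75%; inconclusive = exactly half above 75%; inactive = most below 75%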;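 note: all wells also contain fluconazole at 8 µg/ml as a sub-toxic cotreatment; 0% = median of DMSO wells and 100% = median of geldanamycin control wells; wells of about 8 µL received 7.5 nL stock; the first replicate is given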
RanGTP-Impb inh: disruptors of Ran-importin-beta complex formation – biochemical, FRET, CFP-Ran, YFP-importin-beta, homogeneous, primary screen | 300,000 tested, 1.1% active | cell-free CFP-Ran/YFP-importin-beta FRET ratio | inhibition, % (concentration not given with the values) | AID 2216;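 active = most replicates above 15%; inconclusive = exactly half above 15%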;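 note: 0% = DMSO wells and 100% = Ran loaded with GDP instead of GTP; wells of about 40 µL received 100 nL stock; the first replicate is given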
FGF22 binding: shifts melting point of recombinant human FGF22. AID 651658. calls only at 9.99 µM. 340,000 tested, 1.5% active. Q9HCT0. recombinant FGF22 thermal shift, SYPRO orange fluorescence; percent of sucrose octasulfate shift, DMSO zero;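 active = melting point raised past a set limit in the mean and every replicate; inconclusive = no clear call; three in four hits are not shown here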
Target sequence (Q9HCT0 whole entry, looked up): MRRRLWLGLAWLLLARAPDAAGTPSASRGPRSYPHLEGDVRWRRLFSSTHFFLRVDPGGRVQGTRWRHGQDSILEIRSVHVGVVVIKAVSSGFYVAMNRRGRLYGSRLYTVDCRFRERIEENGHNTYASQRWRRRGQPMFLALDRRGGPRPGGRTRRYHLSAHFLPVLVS
rRNA inh HTS OD600: further read-out of rRNA inh HTS, marked with its call; OD600 change, %; measured here: OD600 growth;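 optical density of the mix in the first replicate; 0 = DMSO median and -100 = no signal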
rRNA inh HTS RFP: also measured in rRNA inh HTS; calls as there; RFP signal change, %; measured here: RFP humanized mutant strains;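 first replicate; 0 = DMSO median and -100 = no signal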
Numbers without * were called inactive. Only part of the results is shown; the hit share may differ from the screen's.

Results for C=C(C)COc1ccc(-c2nc(N)ncc2Oc2ccccc2OCC)c(O)c1 ?
ALR H2O2 inh: -4; Beta cell apopt: -7; T cruzi repl: 48; Calb FLC: 7; RanGTP-Impb inh: -2.7

How did O=C(CCCOc1ccc(Cl)cc1Cl)Nc1nnc(C2CC2)s1 do in these assays?
ALR H2O2 inh: 3; Beta cell apopt: -9; T cruzi repl: 3; MLL AF4-AF9 inh: -0.3; rRNA inh HTS: 7; Calb FLC: -6; RanGTP-Impb inh: 6.3; FGF22 binding: inactive; rRNA inh HTS OD600: 15; rRNA inh HTS RFP: 1.0

Results for C=CCNC(=O)c1ccc(N(CC=C)S(C)(=O)=O)cc1 ?
ALR H2O2 inh: -2; Beta cell apopt: -2; T cruzi repl: 2; Calb FLC: -1; RanGTP-Impb inh: -0.4

Results for CS(=O)(=O)N1CCCC(C(=O)NC2CCCCCCC2)C1 (stereo not drawn) ?
ALR H2O2 inh: -3; T cruzi repl: 4; MLL AF4-AF9 inh: -44; rRNA inh HTS: 12; Calb FLC: -9; RanGTP-Impb inh: 4.6; FGF22 binding: inactive; rRNA inh HTS OD600: 4; rRNA inh HTS RFP: 2.8

How did CCCNc1c(NC(=O)c2ccc3c(c2)OCO3)c(=O)oc2ccccc12 do in these assays?
ALR H2O2 inh: -3; Beta cell apopt: 3; T cruzi repl: -8; MLL AF4-AF9 inh: -3.3; rRNA inh HTS: 0; Calb FLC: 3; RanGTP-Impb inh: -1.1; FGF22 binding: inactive; rRNA inh HTS OD600: -1; rRNA inh HTS RFP: 0.7

How did CC1=NN(Cc2ccccc2)C(=O)C1 do in these assays?
ALR H2O2 inh: 7; Beta cell apopt: -4; T cruzi repl: -21; Calb FLC: -7; RanGTP-Impb inh: -1.9

How did O=S(=O)(c1cc(Cl)ccc1Cl)N1CCN(Cc2ccc3c(c2)OCO3)CC1 do in these assays?
ALR H2O2 inh: -10; Beta cell apopt: -2; T cruzi repl: 17; MLL AF4-AF9 inh: 0.9; rRNA inh HTS: -7; Calb FLC: inconclusive; RanGTP-Impb inh: inconclusive; FGF22 binding: inactive; rRNA inh HTS OD600: -26; rRNA inh HTS RFP: -5.2

How did Cc1ccc(NC(=O)c2ccc(NCCCN3CCOCC3)c([N+](=O)[O-])c2)cc1Cl do in these assays?
ALR H2O2 inh: 55; Beta cell apopt: 24; T cruzi repl: 33; Calb FLC: 4; RanGTP-Impb inh: 2.2

How did O=C(Nc1cccc(O)c1)C1CC(c2c(F)cccc2Cl)=NO1 (stereo not drawn) do in these assays?
ALR H2O2 inh: 12; Beta cell apopt: 0; T cruzi repl: -5; MLL AF4-AF9 inh: -0.7; rRNA inh HTS: -3; Calb FLC: -30; RanGTP-Impb inh: 3.1; FGF22 binding: inactive; rRNA inh HTS OD600: -3; rRNA inh HTS RFP: -1.4

What do the screens show for `COc1cccc(Oc2cn[nH]c2-c2ccc(OC)cc2O)c1`?
ALR H2O2 inh: 22; T cruzi repl: 7; Calb FLC: 3; RanGTP-Impb inh: -3.0

How did O=C(O)CSc1nnnn1-c1ccc2c(c1)OCCO2 do in these assays?
ALR H2O2 inh: -9; Beta cell apopt: -4; T cruzi repl: -12; Calb FLC: 0; RanGTP-Impb inh: 2.9

What do the screens show for `Cc1cc(C)c(C)c(S(=O)(=O)N2CCNCC2)c1C`?
ALR H2O2 inh: -4; Beta cell apopt: -3; T cruzi repl: 8; MLL AF4-AF9 inh: 0.2; rRNA inh HTS: 11; Calb FLC: 25; RanGTP-Impb inh: 4.4; FGF22 binding: inactive; rRNA inh HTS OD600: 2; rRNA inh HTS RFP: 2.0

What do the screens show for `Cc1cc(C)cc(N(CC(=O)N/N=C/c2ccncc2)S(=O)(=O)c2ccccc2)c1`?
ALR H2O2 inh: -56; Beta cell apopt: -2; T cruzi repl: -4; Calb FLC: 3; RanGTP-Impb inh: 5.9

How did Cc1ccc(-n2nc3c(c2NC(=O)c2ccc4c(c2)OCO4)CS(=O)C3)c(C)c1 (stereo not drawn) do in these assays?
ALR H2O2 inh: 19; T cruzi repl: 8; MLL AF4-AF9 inh: -2.7; rRNA inh HTS: 0; Calb FLC: 1; RanGTP-Impb inh: 1.0; FGF22 binding: inactive; rRNA inh HTS OD600: 1; rRNA inh HTS RFP: -0.7

How did COc1ccc(/C=C(/NC(=O)c2ccco2)C(=O)Nc2ccc(C(C)=O)cc2)cc1 do in these assays?
Beta cell apopt: -4; T cruzi repl: -7; MLL AF4-AF9 inh: 0.1; rRNA inh HTS: 8; Calb FLC: 3; RanGTP-Impb inh: -0.5; FGF22 binding: inactive; rRNA inh HTS OD600: 17; rRNA inh HTS RFP: 1.3

What do the screens show for `COc1ccc(-n2cccc2/C=C/[N+](=O)[O-])cc1`?
Beta cell apopt: 26; T cruzi repl: -11; MLL AF4-AF9 inh: 18; rRNA inh HTS: -1; Calb FLC: -8; RanGTP-Impb inh: 5.8; FGF22 binding: inactive; rRNA inh HTS OD600: -1; rRNA inh HTS RFP: -0.9

How did O=C(O)[C@@H]1CCCN1c1ncnc2sc3c(c12)CCC3 do in these assays?
ALR H2O2 inh: 4; Beta cell apopt: -4; T cruzi repl: -4; Calb FLC: -4; RanGTP-Impb inh: -2.6

What do the screens show for `COc1ccc(CN(C)C(C)C(=O)Nc2ccc(S(=O)(=O)N3CCCCC3)cc2)cc1F` (stereo not drawn)?
ALR H2O2 inh: -2; Beta cell apopt: 1; MLL AF4-AF9 inh: 2.2; rRNA inh HTS: -15; FGF22 binding: inactive; rRNA inh HTS OD600: -20; rRNA inh HTS RFP: -3.7

What do the screens show for `O=C(Nc1ccc(N2CCN(C(=O)c3cccs3)CC2)cc1)c1ccc([N+](=O)[O-])o1`?
ALR H2O2 inh: -39; Beta cell apopt: -10; T cruzi repl: 36; MLL AF4-AF9 inh: 2.8; rRNA inh HTS: 1; Calb FLC: inconclusive; RanGTP-Impb inh: -1.7; FGF22 binding: inactive; rRNA inh HTS OD600: 4; rRNA inh HTS RFP: 0.1

Results for CCN1CCN(C(=O)Cn2cnc3sc(C)c(S(=O)(=O)N4CCN(c5ncccn5)CC4)c3c2=O)CC1 ?
ALR H2O2 inh: 3; T cruzi repl: -5; MLL AF4-AF9 inh: 0.6; rRNA inh HTS: 4; Calb FLC: -17; RanGTP-Impb inh: 0.9; FGF22 binding: inactive; rRNA inh HTS OD600: 4; rRNA inh HTS RFP: -0.7

What do the screens show for `CCN1C(=O)[C@H]2[C@@H](c3ccc(C)cc3)N3C(=O)N(c4ccc(C(F)(F)F)cc4)C(=O)[C@@]3(Cc3ccccc3)[C@H]2C1=O`?
Beta cell apopt: 0; T cruzi repl: -4; MLL AF4-AF9 inh: -6.3; rRNA inh HTS: -56; Calb FLC: -3; RanGTP-Impb inh: -1.8; FGF22 binding: inactive; rRNA inh HTS OD600: -81; rRNA inh HTS RFP: -27

Results for COc1ccccc1CN(C)c1ccc(S(=O)(=O)N2CCN(C)CC2)cn1 ?
ALR H2O2 inh: 0; Beta cell apopt: -4; MLL AF4-AF9 inh: -1.6; rRNA inh HTS: -3; FGF22 binding: inactive; rRNA inh HTS OD600: -5; rRNA inh HTS RFP: 1.0

What do the screens show for `CCOC(=O)CN1C(=O)C(Sc2n[nH]c(-c3cccc(C)c3)n2)CCc2ccccc21` (stereo not drawn)?
ALR H2O2 inh: -5; Beta cell apopt: -2; T cruzi repl: 15; Calb FLC: 12; RanGTP-Impb inh: -0.1

How did CC1(C)CC(NC(=O)c2ccc(Cl)cc2Cl)CC(C)(C)N1 do in these assays?
ALR H2O2 inh: -6; Beta cell apopt: 8; T cruzi repl: -5; MLL AF4-AF9 inh: 1.6; rRNA inh HTS: 22; Calb FLC: 4; RanGTP-Impb inh: -3.4; FGF22 binding: inactive; rRNA inh HTS OD600: 13; rRNA inh HTS RFP: 2.7

Results for CCCn1c(=O)c(Cc2ccccc2)c(O)c2ccccc21 ?
ALR H2O2 inh: 2; Beta cell apopt: -6; T cruzi repl: -3; Calb FLC: -5; RanGTP-Impb inh: 2.2

Results for O=C1C2CCCN2C(=S)N1c1ccc(Cl)cc1 (stereo not drawn) ?
ALR H2O2 inh: -3; T cruzi repl: -6; MLL AF4-AF9 inh: -6.8; rRNA inh HTS: -5; Calb FLC: 2; RanGTP-Impb inh: 1.5; FGF22 binding: inactive; rRNA inh HTS OD600: 12; rRNA inh HTS RFP: -6.1

Results for O=C(CCNS(=O)(=O)c1ccc(Br)s1)N1CCCCC1 ?
ALR H2O2 inh: -13; Beta cell apopt: 1; T cruzi repl: -16; Calb FLC: -1; RanGTP-Impb inh: -1.3

What do the screens show for `CC1CCCN(C(=O)COC(=O)c2ccc(=O)n(Cc3ccccc3)n2)C1` (stereo not drawn)?
ALR H2O2 inh: 1; Beta cell apopt: -1; T cruzi repl: 1; MLL AF4-AF9 inh: 1.2; rRNA inh HTS: 0; Calb FLC: 0; RanGTP-Impb inh: -0.4; FGF22 binding: inactive; rRNA inh HTS OD600: 2; rRNA inh HTS RFP: -1.9

Results for CCOC(=O)C1CCCN(C(=O)Cc2ccc(Cl)cc2)C1 (stereo not drawn) ?
ALR H2O2 inh: 0; Beta cell apopt: -2; T cruzi repl: 1; Calb FLC: -2; RanGTP-Impb inh: 0.4

What do the screens show for `CN1/C(=C\C(=O)c2cncc(Br)c2)C(C)(C)c2ccccc21`?
Beta cell apopt: 101*; T cruzi repl: 44; Calb FLC: 16; RanGTP-Impb inh: 10

What do the screens show for `CCN(CC)C(=O)CCc1nnc(Cc2cccc(C(F)(F)F)c2)o1`?
ALR H2O2 inh: -28; T cruzi repl: -1; MLL AF4-AF9 inh: -1.2; rRNA inh HTS: 6; Calb FLC: -5; RanGTP-Impb inh: -1.6; FGF22 binding: inactive; rRNA inh HTS OD600: 5; rRNA inh HTS RFP: -0.4

How did CC1CCN(C(=O)c2nc[nH]c2C(=O)N2CCc3ccccc3C2)CC1 do in these assays?
ALR H2O2 inh: 0; Beta cell apopt: -2; MLL AF4-AF9 inh: 0.4; rRNA inh HTS: 8; FGF22 binding: inactive; rRNA inh HTS OD600: 1; rRNA inh HTS RFP: 8.3

Results for COc1ccc(N2CCN(C(=O)CSc3ncccc3-c3nc4ccccc4[nH]3)CC2)cc1 ?
ALR H2O2 inh: 47; Beta cell apopt: 8; T cruzi repl: 23; MLL AF4-AF9 inh: 12; rRNA inh HTS: -13; Calb FLC: -2; RanGTP-Impb inh: -6.6; FGF22 binding: inactive; rRNA inh HTS OD600: -16; rRNA inh HTS RFP: 1.0

Results for O=C(c1ncc[nH]1)c1cccs1 ?
ALR H2O2 inh: 2; T cruzi repl: -1; MLL AF4-AF9 inh: -4.2; rRNA inh HTS: 5; Calb FLC: 3; RanGTP-Impb inh: -1.8; FGF22 binding: inactive; rRNA inh HTS OD600: 10; rRNA inh HTS RFP: -1.3

What do the screens show for `c1ccc(-c2noc(-c3cccnc3)n2)cc1`?
ALR H2O2 inh: -5; Beta cell apopt: 0; T cruzi repl: -19; Calb FLC: -2; RanGTP-Impb inh: -0.9

How did CC(=O)Nc1c(-c2ccc3ccccc3c2)nc2ccccn12 do in these assays?
T cruzi repl: -3; MLL AF4-AF9 inh: -0.3; rRNA inh HTS: 3; Calb FLC: -6; RanGTP-Impb inh: -2.0; FGF22 binding: inactive; rRNA inh HTS OD600: 18; rRNA inh HTS RFP: 3.1

Screens from PubChem.
